VDR inhibitor = vitamin D3 receptor (human) inhibition; Potency, µM, without a hit: max response, negative = inhibition, usual class: inhibitors; VDR-SRC2-3 peptide fluorescence polarization, 2 h; actives 0.93% (n = 400,000); P11473; AID 504847; active means well fitted inhibition curve with a large enough effect; inconclusive means small, poorly fitted or top-dose-only effect, or another doubt; inactive means no such curve, though single readings can be large or run the other way; further: series mostly up to about 120 µM
Target sequence (P11473 whole entry, looked up): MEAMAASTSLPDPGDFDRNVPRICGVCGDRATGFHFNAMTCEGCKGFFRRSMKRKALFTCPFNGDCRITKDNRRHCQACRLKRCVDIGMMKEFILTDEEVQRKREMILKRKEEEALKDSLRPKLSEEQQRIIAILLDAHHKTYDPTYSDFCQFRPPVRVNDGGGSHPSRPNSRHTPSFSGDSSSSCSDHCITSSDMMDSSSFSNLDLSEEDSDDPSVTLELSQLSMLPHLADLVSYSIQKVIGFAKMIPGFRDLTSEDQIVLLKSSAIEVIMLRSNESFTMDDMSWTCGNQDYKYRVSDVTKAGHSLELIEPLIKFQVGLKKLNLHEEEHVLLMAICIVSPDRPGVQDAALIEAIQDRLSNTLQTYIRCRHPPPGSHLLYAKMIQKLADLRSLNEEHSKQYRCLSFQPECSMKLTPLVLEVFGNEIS
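VDR–SRC2-3 interaction, FP format. Cmpds 23 nl via pintool, brief spin, 2 h ambient incubation.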
An asterisk follows results filed as active; ? = inconclusive. On the % scale 0 is the no-effect control and ±100 the full control effect; potency means the concentration at half of the fitted maximal effect. Not all compounds are listed; rates above refer to the full screens.

VDR inhibitor | structure
-12% | O=C(CCNS(=O)(=O)c1ccccc1)NNC(=O)C1COc2ccccc2O1 (stereo unspecified)
-2% | COC(=O)Cn1c(=NC(=O)CCS(=O)(=O)c2ccccc2)sc2c(OC)ccc(OC)c21
3% | CCc1nnc(NC(=O)C2CC(=O)N(Cc3ccco3)C2)s1 (stereo unspecified)
-12% | O=C(CSc1nnc(-c2ccccc2F)n1CCc1ccccc1)Nc1ccc2[nH]c(=O)[nH]c2c1
1% | CCSc1nc2ccccc2n1CCOc1ccccc1
? | COc1ccc(OC)c(-c2cc(C3CCN(c4cc(Cl)nc(N)n4)CC3)[nH]n2)c1
-16% | CCCN1CNc2c(c(=O)[nH]c(=S)n2CCc2ccc(Cl)c(Cl)c2)C1
11% | CCN1C(=O)C2(c3ccccc31)c1c(oc3ccc(C)cc3c1=O)C(=O)N2CCCOC(C)C (stereo unspecified)
-22% | NC(=O)c1ccsc1NC(=O)COC(=O)CCCOc1ccccc1
10% | COc1ccc(C(=O)Nc2ccc(S(=O)(=O)N3CCCC3)cc2)c(OC)c1
-14% | CC1=NN2C(=N)/C(=C\c3ccc(SCc4ccccc4)o3)C(=O)N=C2S1
-21% | Cc1cc(Oc2nc3c(C)cccn3c(=O)c2/C=C(\C#N)S(=O)(=O)c2ccccc2)ccc1Cl
-15% | Cc1c(-n2c(SCC(=O)N(C)C3CCS(=O)(=O)C3)nc3ccccc3c2=O)c(=O)n(-c2ccccc2)n1C (stereo unspecified)
4% | CC1CCCN(S(=O)(=O)c2cc3c4c(c2)CCN4C(=O)CC3)C1 (stereo unspecified)
9% | CCc1ccc(S(=O)(=O)NC2CC(C)(C)NC(C)(C)C2)cc1
-14% | Cc1ccc(S(=O)(=O)NCC(=O)OC(C(=O)c2ccccc2)c2ccccc2)cc1 (stereo unspecified)
-11% | C[C@@H](NC(=O)c1ncn(C)c1C(=O)N[C@H](C)c1ccccc1)c1ccccc1
8% | CCOC(=O)c1cc(OC(=O)c2ccccc2C)n(-c2ccccc2)n1
9% | COC(=O)c1ccc(NC(=S)NCCCn2ccnc2)cc1
15% | CC(=O)NCCC(=O)Nc1nc(C)c(Cc2ccc3c(c2)OCO3)s1
-22% | O=c1n(Cc2cccc(C(F)(F)F)c2)c2ccccc2c2nc(-c3ccccc3)nn12
-27% | COc1ccccc1NC(=O)C1=C(C)Nc2nc(SCc3ccccc3)nn2C1c1ccccn1 (stereo unspecified)
3% | CC(=O)Nc1sc2c(c1CN1CCCC1)CCCC2
12% | Cc1nnc(NCc2cccc(Cl)c2)c2ccccc12
0% | CCCCCCCC(=O)N/N=C/c1ccc([N+](=O)[O-])o1
3% | CC(=O)c1ccc(OCC(O)CN2CC(C)OC(C)C2)cc1 (stereo unspecified)
2% | O=C(O)/C=C\C(=O)Nc1ccccc1C(=O)NCc1ccccc1
-14% | Cc1csc(NC(=O)C2CCCC2)n1
8% | CC12CCC(=O)C=C1C(O)CC1C2CCC2(C)C1CCC2(O)C(=O)CO (stereo unspecified)
10% | CC12CCC(C(=O)Nc3cc(Cl)ccc3Cl)(C/C1=N\O)C2(C)C (stereo unspecified)

Of the compounds above, these contain a Cl atom:
VDR inhibitor | structure
? | COc1ccc(OC)c(-c2cc(C3CCN(c4cc(Cl)nc(N)n4)CC3)[nH]n2)c1
-16% | CCCN1CNc2c(c(=O)[nH]c(=S)n2CCc2ccc(Cl)c(Cl)c2)C1
-21% | Cc1cc(Oc2nc3c(C)cccn3c(=O)c2/C=C(\C#N)S(=O)(=O)c2ccccc2)ccc1Cl
12% | Cc1nnc(NCc2cccc(Cl)c2)c2ccccc12
10% | CC12CCC(C(=O)Nc3cc(Cl)ccc3Cl)(C/C1=N\O)C2(C)C (stereo unspecified)

Additional records follow:
VDR inhibitor | structure
-6% | COC(=O)C1=C[C@@H](C(=O)OC)C2C3=C(C(=O)[C@]2(C)NC(=O)c2ccccc2)[C@H](C)[C@@H]2C(=O)N(C)C(=O)[C@@H]2[C@@H]3C1 (stereo partly specified)
15% | CC(Oc1ccccc1)C(=O)OCC(=O)Nc1sccc1C(N)=O (stereo unspecified)
21% | O=C(O)/C=C/c1ccccc1Oc1ccc(Cl)cc1Cl
-9% | CC1CCCCN1C(=O)c1ccc(CS(=O)(=O)Cc2ccccc2)cc1 (stereo unspecified)
-5% | O=C(NCc1ccc(F)cc1)C1CC(=O)N(C2CCCCCCC2)C1 (stereo unspecified)
14% | N=c1n(CCO)c2ccccc2n1Cc1ccc(Cl)cc1
11% | CC(OC(=O)CN1C(=O)c2ccccc2C1=O)C(=O)NC1CCCCC1C (stereo unspecified)
11% | Nc1ccccc1Nc1cc(-c2ccccc2)[nH]n1
-4% | C=CCN(c1ccc(C(=O)Nc2cccc(C)c2)cc1)S(C)(=O)=O
-6% | CCCCNCc1cc(Br)c(OCC(=O)N2CCOCC2)c(OC)c1
-23% | Cc1ccc2nc(Nc3nc(CSc4nc5ccccc5s4)cc(=O)[nH]3)nc(C)c2c1
6% | CCCSCCCNC(=O)c1ccc2c(c1)sc1nc(-c3ccc(OCC)cc3)cn12
5% | O=C(CCNC(=O)c1ccc(Cl)cc1)NCCC1=CCCCC1
12% | O=C(OCC1OC(n2cnc3c(N(C(=O)c4ccccc4)C(=O)c4ccccc4)ncnc32)C(O)C1F)c1ccccc1 (stereo unspecified)
20µM* | Cc1cccc(C=CC(=O)c2ccc(Cl)cc2)c1
-27% | NC(=O)CSc1nnc(NC(=O)C2CC(=O)N(c3ccc(F)cc3)C2)s1 (stereo unspecified)
-12% | Cc1nn(-c2ccccc2)c(C)c1NC(=O)COc1ccc(C#N)cc1
? | Cc1cc(C)nc(NNC(=O)NC2CCCCC2)n1
-18% | CC1CC(C)CN(S(=O)(=O)c2ccc(C(=O)N(C)Cc3ccccc3)cc2)C1 (stereo unspecified)
7% | CC(=O)Nn1c(COc2ccccc2C)nc2ccccc2c1=O
-5% | Cc1ccc(/C=N/n2cnc3sc4c(c3c2=O)CCCC4)o1
4% | Oc1c(N=NC(=S)Nc2ccccc2F)c2ccccc2n1Cc1cccc(Cl)c1
-10% | Nc1ncnc2c1ncn2[C@@H]1O[C@H](CNCc2cccc(C#Cc3ccccc3)c2)[C@@H](O)[C@H]1O
1% | CCCCOCCCn1c(-c2ccco2)nc2nc3ccccc3nc21
-6% | CCCCOc1ccc(C(=O)N2CCNC(=O)C2CC(=O)OC(C)C)cc1 (stereo unspecified)
-21% | COc1ccc(C(=O)NCc2n[nH]c(=S)n2-c2ccccc2)cc1OC
-8% | Cc1nc2sc(C(c3cccc(F)c3)N3CCN(C(=O)c4ccco4)CC3)c(O)n2n1 (stereo unspecified)
-11% | Cn1c(=O)c2c(-c3ccccc3)n(C3CCCCC3)cc2n(C)c1=O
-2% | CCOC(=O)c1ccccc1NC(=O)c1cn(CC(C)C)c(=O)c2cc(OC)c(OC)cc12
-1% | CC(=O)c1cc(C)ccc1OC(=O)c1cccc2nc(C)oc12

Fetched by compound from above, 4 records:
VDR inhibitor | structure
-11% | Cn1c(=O)c2c(-c3ccccc3)n(C3CCCCC3)cc2n(C)c1=O
11% | CC(OC(=O)CN1C(=O)c2ccccc2C1=O)C(=O)NC1CCCCC1C (stereo unspecified)
12% | O=C(OCC1OC(n2cnc3c(N(C(=O)c4ccccc4)C(=O)c4ccccc4)ncnc32)C(O)C1F)c1ccccc1 (stereo unspecified)
-2% | CCOC(=O)c1ccccc1NC(=O)c1cn(CC(C)C)c(=O)c2cc(OC)c(OC)cc12

(further entries)
VDR inhibitor | structure
-11% | CCS(=O)(=O)N1Cc2ccccc2CC1C(=O)Nc1nnc(SCc2c(Cl)cccc2Cl)s1 (stereo unspecified)
7% | COc1ccccc1NC(=O)CSCc1cc(=O)n2ccsc2n1
-6% | O=C(c1ccc(Cn2cc([N+](=O)[O-])cn2)o1)N1CCCC1
-5% | CC1CCCCN1CCCNC(=O)c1nn(C)c2c1CSc1ccccc1-2 (stereo unspecified)
-2% | CN(C)C(=O)CSc1nnc(-c2cc(-c3cccs3)nc3ccccc23)o1
4% | CC(O)CN1CC(O)=C(c2nc3ccccc3s2)C1=N (stereo unspecified)
15% | CCN(Cc1cnn(C)c1)C(=O)c1ccc(OC2CCN(S(=O)(=O)N(C)C)CC2)cc1
7% | CC(C)(C)c1cc(NC(=O)Nc2ccccc2OC(F)(F)F)no1
9% | O=C(O)c1cc(S(=O)(=O)Nc2cccc(S(=O)(=O)N3CCCC3)c2)ccc1Cl
-8% | CCOCc1c(C(=O)Nc2ccc(OC)nc2)oc2ccccc12
5% | COCCCNC(NC(=O)c1ccc(C)cc1)C(Cl)(Cl)Cl (stereo unspecified)
-1% | COC(=O)CC1Sc2ccccc2NC1=O (stereo unspecified)
13% | CCN(CC(=O)Nc1ccc(NC(C)=O)cc1)C(=O)c1cc(-c2ccccc2Cl)nc2ccccc12
-11% | CCOC(=O)N1CCC(NC(=O)c2cc3c(-c4ccccc4F)nn(C)c3s2)CC1
-8% | CN(C)c1ccc(C=NC(CO)C(O)c2ccc([N+](=O)[O-])cc2)cc1 (stereo unspecified)
-9% | C/C(=N/Nc1ccc(C(=O)O)cc1)c1ccc2c(c1)Nc1ccccc1S2
-2% | COC(=O)/C=C/c1ccc(OC(=O)c2ccncc2)cc1
9% | Cc1ccnc(N=Cc2nc(-c3ccccc3Br)oc2O)c1
0% | Cc1cccc(-n2c(SCC(=O)O)nc3sc4c(c3c2=O)CCC4)c1
11% | CCN(c1cc(C)cc(C)c1)S(=O)(=O)c1nnc(NC(=O)C2CCCCC2)s1
-12% | CCOC(=O)C1=C(COC(=O)/C=C/c2ccc(O)c(OC)c2)NC(=O)NC1C (stereo unspecified)
-14% | CCN(CC)S(=O)(=O)c1ccc(NC(=O)C2c3ccccc3Oc3ccccc32)cc1
-14% | CCc1ccccc1NCc1cc(=O)oc2cc(C)ccc12
-16% | CN(CC(=O)Nc1ccccc1Cl)CC(=O)Nc1cccc2ccccc12
-10% | COc1ccc(CC(=O)Nc2nnc(C(C)C)s2)cc1OC
1% | COc1ccc(-c2noc(CCC(=O)Nc3ccc4c(c3)OCCO4)n2)cc1
-8% | CCOC(=O)c1c(C#N)cnn1-c1ccc(C)cc1
-2% | CCc1ccc(S(=O)(=O)N2CCN(c3ccccc3OC)CC2)cc1
-8% | COC(=O)[C@H](C)NC(=O)Nc1ccc(Oc2ccccc2)cc1
-19% | O=C(NCCc1ccccc1)C1CC(=O)N(CCc2ccccc2)C1 (stereo unspecified)
? | Cc1c(NC(=O)/C=C/c2cn(-c3ccccc3)nc2-c2ccc(F)cc2)c(=O)n(-c2ccccc2)n1C
-1% | COC(=O)c1ccc(NC(=O)CCNS(=O)(=O)c2cccc3nsnc23)cc1
-7% | Cc1cc(C)cc(C(=O)NC(=S)Nc2ccc3c(c2)OCCO3)c1
-21% | Cc1c(Br)cc(C(=O)NC2CCCCC2)c(C)c1C
-12% | O=C(CCNC(=O)c1ccc(Br)cc1)NC1CCCc2ccccc21 (stereo unspecified)
-7% | COc1ccc(-c2nc(CS(=O)CC(=O)NCCCN3CCOCC3)c(C)o2)cc1OC (stereo unspecified)
-12% | COc1cc(OC)c(CN2CCC(Cc3ccccc3)CC2)cc1Br
2% | O=C(Cn1nnc(-c2ccncc2)n1)Nc1ccc2c(c1)CCC2
28µM* | CCCN1CCCc2cc(CN)ccc21
1% | CC1CC(C(F)(F)C(F)(F)F)n2nc(C(=O)O)cc2N1 (stereo unspecified)
? | Cc1cc(C)n2nc(SCc3c(F)cccc3Cl)nc2n1
-8% | O=C(CCCN=C1NS(=O)(=O)c2ccccc21)OCC(=O)c1ccccc1Cl
15% | COc1ccc(N2C(=O)C(CC(=O)Nc3ccccc3)N(CCC3=CCCCC3)C2=O)cc1 (stereo unspecified)
11% | CC(C)(CN1CCN(c2ccccc2)CC1)NS(=O)(=O)c1ccccc1
-16% | Cc1cc(C)cc(SCc2noc(C(=O)NCC3CC3)c2C(=O)NCC2CC2)c1
-2% | CCCCC1(Cc2cccc([N+](=O)[O-])c2)C(=O)N(c2ccccc2)N(c2ccccc2)C1=O
-3% | CS/C(=N\S(=O)(=O)c1ccc(N)cc1)NS(=O)(=O)c1cccs1
5% | COc1ccc(C2CC(c3cccs3)=NN2C(=O)CSc2nc(=O)n3ccccc3n2)cc1 (stereo unspecified)
4% | Cc1ccc(-n2c(-c3nn(C)c(C)c3Cl)n[nH]c2=S)cc1
5% | COc1ccccc1Nc1nc(N)nc(-c2oc3ccccc3c2C)n1
15% | O=C(O)c1ccc(NC(=O)c2ccccc2NC(=O)c2ccccc2Cl)cc1
11% | O=C(CSC1=Nc2ccccc2N=C(c2ccc(F)cc2)C1)Nc1ccccc1
9% | Cc1ccc(SC/C(O)=C(\C#N)c2nc3ccccc3s2)cc1
2% | CS(=O)(=O)N(CC(=O)Nc1ccc2c(c1)OCO2)Cc1ccccc1
-3% | COc1ccc(-c2c(C)nn3c(N4CCC(C(=O)NCCN(C)C)CC4)cc(C)nc23)cc1OC
5% | O=C(CN1CCN(C(=O)c2cccc(F)c2)CC1)NC1CCCCC1
-13% | COc1cc(/C=C(\C#N)C(=O)NC(C)C)ccc1OCc1ccc(C(=O)O)cc1
-12% | Cc1ccccc1CSc1ncnc2ccccc12
1% | Cc1ccc(-c2cc(C(F)F)n3ncc(C(=O)Nc4c(C)nn(Cc5ccccc5Cl)c4C)c3n2)cc1
-12% | C=CC[N+]1(CC(=O)NCc2ccc(NC(C)=O)cc2)CCOCC1
-14% | CCCCN(C(=O)c1oc2ccc(OCC)cc2c1C)c1c(N)n(CCCC)c(=O)[nH]c1=O
-11% | Cc1ccc(CNCCNCCO)s1
-1% | O=C(NCCCN1CCOCC1)c1cnn2c(-c3ccccc3)cc(-c3ccccc3)nc12

3 compounds out of the list, sorted by formula weight, falling.
VDR inhibitor | structure
-11% | CCS(=O)(=O)N1Cc2ccccc2CC1C(=O)Nc1nnc(SCc2c(Cl)cccc2Cl)s1 (stereo unspecified)
11% | CC(C)(CN1CCN(c2ccccc2)CC1)NS(=O)(=O)c1ccccc1
7% | COc1ccccc1NC(=O)CSCc1cc(=O)n2ccsc2n1

Compound activity as filed in PubChem.
